Sa RN4220 lethal: kills Staphylococcus aureus RN4220 | S. aureus RN4220 growth, OD600, 16 h | inhibition, % (no concentration beside the values) | AID 1259311 | hit rate 0.33% among 330,000;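 active means z-score of -3 or lower and OD600 up to 0.18 on both plates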;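 further: plate controls were untreated cells for no effect and reference antibiotic for full effect; stock transfer was 100 nL into about 80 µL; one replicate is shown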
BJeLR viability: BJeLR cell viability loss. inhibition, % (test concentration not listed). BJeLR (HRASV12) viability, CellTiter-Glo ATP luminescence, 48 h; reference of the scale not given here. hit rate 0.17% among 300,000;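 active means replicate mean above 50%; inconclusive means above 50% but judged a plate artefact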;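 further: 50 nL library stock added to about 25 µL; numbers are from one replicate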
Bead autofluor: flagged as autofluorescent in microsphere protease counterscreen; AID 624483; compound autofluorescence counterscreen, microsphere flow cytometry; stronger effect = higher value; hit rate 3.1% among 360,000; fluorescence intensity (test concentration not listed);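 active means at least 3 SD above the mean of all compounds, about 16000 in these data; inconclusive means too few beads counted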;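 further: 100 nL of 1 mM stock went into each well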
Mtb hypoxia inh: reduces hypoxia-regulated biosensor signal in M. tuberculosis; M. tuberculosis hypoxia-regulated fluorescent reporter, fluorescence; fluorescence inhibition, % (test concentration not listed); hit rate 0.1% among 300,000; AID 1159583;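 active means 35 to 45% if threefold the growth effect, above 45% if 1.5-fold the growth effect; inactive means the rest, general growth blockers included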;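 further: wells of about 50 µL received 100 nL stock; 0% = vehicle wells and 100% = reference inhibitor wells; whole bacteria with a GFP reporter of the hypoxia response; strong numbers were not always called active; many hits fall short of the cut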
PrP UTR inh: suppresses PrP 5' UTR mRNA reporter expression; cell-based PrP 5' UTR mRNA reporter, plate reader; inhibition, % (no concentration beside the values); hit rate 0.35% among 340,000;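 active means every replicate at 50% or more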;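 further: 0 = median of the neutral control wells; tested in H4 reporter cells; numbers are from one replicate; inactives centre near -14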
ugtP null kill: kills S. aureus RN4220 lacking UgtP. S. aureus RN4220 ugtP deletion, OD600 growth, 16 h; some inactives read as strong as hits. growth inhibition, % (no concentration beside the values). hit rate 0.54% among 330,000;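 active means z-score under -3 and OD600 up to 0.15 on both plates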;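 further: plate controls were untreated wells for no effect and antibiotic for full effect; wells of about 80 µL received 100 nL stock; the first replicate is given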
Mtb hypoxia inh growth: recorded beside Mtb hypoxia inh, whose call it bears; growth inhibition, %; measured here: M. tuberculosis growth (absorbance);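 0% = vehicle and 100% = reference antibiotic; read after six days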
Active calls of the source: *; u = inconclusive; x = no result given.

SMILES	Sa RN4220 lethal	BJeLR viability	Bead autofluor	Mtb hypoxia inh	Mtb hypoxia inh growth	PrP UTR inh	ugtP null kill
O=C(Nc1ccncc1)C1c2ccccc2Oc2ccccc21	-0.6	-15	9865	18	3	-24	-3
Cc1nc(C)c(-c2ccc(SCC(=O)Nc3cccc(F)c3)nn2)s1	-0.6	3	6030	5	9	-14	-11
CCOc1cc2c(cc1/C=C1/NC(=O)N(CC(=O)OC)C1=O)OCO2	1.3	1	3980	6	3	-24	5
COc1ccc(/C=C2\SC(=S)N(CCCC(=O)N3CCN(C)CC3)C2=O)cc1OC	2.8	x	3615	-1	13	-14	4
COC(=O)c1cc(S(=O)(=O)NCc2ccc3c(c2)OCO3)cn1C	2.3	-3	4910	7	2	-4	-1
Cn1ncc2c(Sc3ccc(Cl)cc3)ncnc21	3.7	7	3940	-1	-1	-44	7
CCc1noc(C)c1C(=O)N1CCCSC1=Nc1ccccc1C(C)C	10	-5	u	6	-9	0	-2
COc1cc(-c2nnn(CC(=O)NCc3ccccc3)n2)cc(OC)c1OC	-6.9	5	3102	-13	-15	-11	-2
O=C(Nc1cccc(NC(=O)c2ccccc2[N+](=O)[O-])c1)c1ccccc1Cl	2.9	-7	3995	-4	-1	-2	1
CC(C)CN(CCNC(=O)c1cn(C)c2ccc(S(=O)(=O)N3CCCC3)cc2c1=O)CC(C)C	2.6	8	5236	-2	0	6	0
Cn1cnnc1SCc1ccc(C(=O)NN=Cc2cccs2)cc1	3.7	x	x	8	3	x	3
CC(C)(C)NC(=O)c1cccc(NC(=O)c2cccc(O)c2)c1	-4.1	2	7407	25	5	-22	4
N#Cc1ccc(Cl)cc1NC(=O)CSc1nc2nc(-c3cccs3)cc(C(F)(F)F)c2c(=O)[nH]1	12	18	x	-7	3	x	4
CSc1cccc(NS(=O)(=O)c2ccc(F)cc2)c1	4.8	-1	3960	12	-1	-17	-6
Cc1ncsc1CCC(=O)N1CCCC(Nc2ccc(C(C)C)cc2)C1 (stereo unspecified)	2.9	0	u	6	0	2	-1
CCOC(=O)Cn1nc(C)c(NC(=O)CCc2ccccc2)c1C	2.5	-10	2560	6	6	-23	11
Cc1ccc(C(=O)NC2CCCCCC2)cc1S(=O)(=O)N1CCOCC1	-1.1	-1	4746	-14	-11	-16	-2
CCOC(=O)CSc1ccc(C(=O)Nc2ccc(OC)cc2)cn1	5.1	1	4788	16	15	-29	8
O=C(N=C1SC2CS(=O)(=O)CC2N1c1cc(Cl)ccc1Cl)C1CC1 (stereo unspecified)	8.0	1	6656	-2	5	-4	3
N#CC1(NC(=O)CSc2ccccn2)CCCCC1	8.7	7	u	2	-2	-26	16
CCOc1ccc(NC(=O)CSc2nc3ccsc3c(=O)n2CCC(=O)O)cc1	13	1	5983	1	-1	-12	0
Cc1cc(C(F)(F)F)c(C#N)c(N2CCOCC2)n1	2.5	0	2418	x	x	-8	5
CC(C)c1cc(C(=O)O)n(-c2ccccc2)n1	-3.1	-7	12876	-7	0	-34	-3
Cc1ccc(NC(=O)Nc2ccccc2F)cc1S(=O)(=O)N1CCOCC1	0.3	x	3556	-21	-4	-11	-14
Cc1ccc2c(c1)nnn2C1CCN(S(=O)(=O)c2ccc(C(=O)N3CC(C)CC(C)C3)cc2)CC1 (stereo unspecified)	0.4	-7	8013	0	8	-28	5

Brought forward from above: 2 compounds; new compounds follow.
SMILES	Sa RN4220 lethal	BJeLR viability	Bead autofluor	Mtb hypoxia inh	Mtb hypoxia inh growth	PrP UTR inh	ugtP null kill
Cc1ccc(NC(=O)Nc2ccccc2F)cc1S(=O)(=O)N1CCOCC1	0.3	x	3556	-21	-4	-11	-14
Cc1ccc2c(c1)nnn2C1CCN(S(=O)(=O)c2ccc(C(=O)N3CC(C)CC(C)C3)cc2)CC1 (stereo unspecified)	0.4	-7	8013	0	8	-28	5
O=C(Nc1ccc(C(=O)O)cc1)Nc1cccc([N+](=O)[O-])c1	x	-18	2445	x	x	-29	x
Cc1ccc2occ(/C=C/C(=O)c3ccccc3O)c(=O)c2c1	-0.5	9	5491	x	x	-62	1
CCc1nn2c(=O)cc(CSc3nc(C)cc(=O)[nH]3)nc2s1	5.9	1	5855	-1	-1	-15	5
CCN(c1cccc(C)c1)C(C(=O)Nc1ccc(OC)cc1)c1cc2c(cc1[N+](=O)[O-])OCO2 (stereo unspecified)	11	-1	8370	-1	-5	-15	7
CCCn1c(CN2CCN(C(=O)OCC)CC2)nc2c1c(=O)n(C)c(=O)n2C	8.2	5	6157	0	8	-43	1
CN(Cc1ccccc1N1CCCC1)C(=O)c1cc2cc(Cl)ccc2o1	12	x	4053	18	10	-20	2
CCc1nnc(NC(=O)CSc2nnc(-c3c[nH]c4ccccc34)n2C)s1	1.2	-9	11213	6	9	-8	-4
Nc1cc(=O)[nH]c(SCc2cccc3ccccc23)n1	-4.1	-3	3615	-6	0	-7	-5
O=C(N/N=C/c1cccnc1)c1cc2ccccc2o1	x	6	2073	x	x	-24	x
O=C(c1ccccc1F)N1CCN=C1SCc1cccnc1	x	0	5655	x	x	12	x
CCN(CC)CCC(c1ccc(OC)cc1)c1c(O)cc(OC)cc1OC (stereo unspecified)	3.8	7	4689	7	16	-21	1
O=C(COc1ccccc1)N(Cc1ccco1)c1ccc(O)cc1	1.2	8	2833	x	x	-19	6
CCOC(=O)c1cc(C(=O)NN)c(C)nc1C	2.5	9	2481	4	7	-9	5
Cc1ccc(S(=O)(=O)NC(=O)NCc2ccc3c(c2)OCO3)cc1	5.9	-3	3742	2	6	-2	5
COc1cccc(NC(=O)CN(C)C(=O)c2ccc(-c3ccc(Cl)cc3)o2)c1	3.8	0	6502	2	1	-25	-5
Cc1ccc(S(=O)(=O)N/N=C/c2ccc(C#N)cc2)cc1	x	2	3775	x	x	-16	x
COCCN(CCOC)Cc1c(O)ccc2c1O/C(=C\c1ccco1)C2=O	x	-3	3063	x	x	-13	x
Cc1cc(C)c(NC(=O)CSc2nc3c(c(=O)n2C)SC(C)C3)c(C)c1 (stereo unspecified)	3.4	-4	5054	1	-3	-14	4
Cn1c(C(=O)N[C@@H](Cc2ccccc2)C(=O)O)cc2cc(Cl)ccc21	2.7	-14	3778	10	1	-8	-1
Cc1ccc(N(CC(=O)NCCc2ccccc2)C(=O)CCC(=O)Nc2cc(C)ccn2)cc1	2.7	-2	5296	1	3	-12	0
CSc1nc2ccccc2n1C(=O)Oc1ccccc1	-0.7	-2	20058*	3	2	-15	2
Cc1cc(C(=O)NCCCn2ccnc2)cs1	4.3	-1	11154	9	6	4	2
O=C(CN1CCN(c2cccc(C(F)(F)F)c2)CC1)N(C1CCCC1)C1CCS(=O)(=O)C1 (stereo unspecified)	-1.1	x	5949	-2	8	-7	1
O=C(NC1CCS(=O)(=O)C1)c1ccc2c(c1)OCO2 (stereo unspecified)	5.3	-2	6037	5	0	-30	-4
O=c1[nH]n2c(=O)c3c([nH]c2c1N=Nc1cccc(C(F)(F)F)c1)CCCC3	3.8	4	x	6	-1	-23	-20

Continued:
SMILES	Sa RN4220 lethal	BJeLR viability	Bead autofluor	Mtb hypoxia inh	Mtb hypoxia inh growth	PrP UTR inh	ugtP null kill
CCOc1cc(N2CCOCC2)c(OCC)cc1NC(=O)CSc1nc(N)cc(=O)[nH]1	1.0	x	x	8	5	x	7
C/C(=N\OCC(=O)Nc1ccc(F)c(F)c1F)c1cc2ccccc2o1	x	-14	2397	x	x	-13	x
CC(c1nc2scc(-c3ccccc3)c2c(=O)[nH]1)N1CCN(CC(=O)NC2CC2)CC1 (stereo unspecified)	3.1	x	4656	-4	-2	-20	7
Cc1ccc(SCC(=O)OC(C)C(=O)NCc2ccccc2)cc1C (stereo unspecified)	0.6	-10	5439	1	4	-25	0
CNC(=O)NC(=O)CN1C(=O)NC2(CCOc3ccccc32)C1=O (stereo unspecified)	5.1	-6	5642	1	-6	-19	-2
O=C1CC(SC2=NCCS2)C(=O)N1c1ccc(Br)cc1 (stereo unspecified)	-1.3	-6	2512	-2	5	2	7
Cc1ccccc1N(CC(=O)NCCc1ccccc1)C(=O)c1ccc(N2CCCC2)nc1	2.2	-7	4639	x	x	-9	7
O=C(/C=C/c1ccccc1)c1ccc(NC2=NCCCS2)cc1	-1.3	x	2272	9	11	-75	11
Cc1ccnc(NC(=O)C2CC(=O)N(Cc3ccccc3)C2)c1 (stereo unspecified)	3.4	0	5217	2	0	-55	4
O=c1c[n+]([O-])c2ccccc2n1OCc1c(F)cccc1F	1.1	-1	5691	14	11	-1	3
CC(/C=C/c1ccccc1)=NNC(N)=S	5.6	x	x	x	x	x	-1
CCOC(=O)CSc1nc(Nc2ccc3c(c2)OCO3)c2ccccc2n1	6.4	2	10795	4	1	-19	-15
Clc1ccc(CN=C(Nc2ccccc2)NC2CCCCC2)cc1	-5.3	1	5177	2	3	-27	-24
Cc1ccc(C(C(=O)NC2CCCC2)N(C(=O)c2csnn2)c2ccccc2)o1 (stereo unspecified)	1.7	-12	3859	8	-1	-24	6
Cc1nc(Nc2cc(F)ccc2C)c2nnn(Cc3ccccc3)c2n1	x	6	3676	x	x	-2	x
CCOC(=O)C1=C(C)Nc2sc(C(=O)c3ccc(OC)cc3)c(N)c2C1c1ccc(C(=O)OC)cc1 (stereo unspecified)	-0.6	3	9298	-12	6	-14	39
O=S(=O)(c1ccc(Br)s1)N1CCN(CCc2ccccc2)CC1	4.2	x	7936	4	6	-15	7
O=C(O)CC(CC(=O)Nc1nncs1)c1ccccc1 (stereo unspecified)	0.7	-1	3227	x	x	-9	2
COc1ccc(OC)c(NC(=O)c2ccc(CN(c3cc(Cl)ccc3C)S(=O)(=O)c3ccccc3)cc2)c1	5.9	9	2434	1	-3	-10	0
Cc1ccc(S(=O)(=O)NC(C(=O)O)c2ccccc2)cc1 (stereo unspecified)	3.7	7	u	3	6	-42	8
CCCCn1c(N)c(N(CCC(C)C)C(=O)c2oc3ccc(OCC)cc3c2C)c(=O)[nH]c1=O	-2.6	0	6541	-1	9	-9	3
CC(=O)Nc1ccc(S(=O)(=O)NCC(=O)OCC(=O)NC(=O)C2CCCCC2)cc1	5.3	-3	1954	4	8	-8	7
CCC(C)N=Cc1c(NCc2ccco2)nc2c(C)cccn2c1=O (stereo unspecified)	7.0	4	4389	14	11	-21	-4
CCOC(=O)CN(C(=O)c1snc(C(N)=O)c1N)C(C(=O)NC1CCCCC1)c1ccc(F)cc1 (stereo unspecified)	-1.3	-14	x	-9	-3	-2	1
CC(C)N(Cc1nccn1C)C(=O)c1cc(COc2ccc3ncccc3c2)on1	1.8	12	4760	9	14	-9	3

Following part:
SMILES	Sa RN4220 lethal	BJeLR viability	Bead autofluor	Mtb hypoxia inh	Mtb hypoxia inh growth	PrP UTR inh	ugtP null kill
O=C(NCC1(c2ccccc2)CCOCC1)c1ccc(Br)o1	3.0	-4	2982	x	x	-7	6
CCC1CSC(Nc2ccc(C(=O)/C=C/c3cccc(C)c3)cc2)=N1 (stereo unspecified)	-9.6	-2	2910	11	0	-17	24
CCOC(=O)c1ccccc1NS(=O)(=O)c1c(C)nc2sccn2c1=O	7.0	11	5974	5	3	-75	11
O=C(Nc1ccc(NC(=O)c2ccco2)nc1)c1cccc(F)c1	-2.7	-8	4454	-4	-3	-45	-1
O=C(COC(=O)c1ccco1)NCc1ccco1	-0.8	0	3979	-8	8	-12	1
Cc1cccc(C2C3C(=O)N(Cc4ccccc4)C(=O)C3[C@]3(Cc4ccccc4)C(=O)N(c4ccccc4)C(=O)N23)c1 (stereo partly specified)	8.0	x	x	-2	3	x	4
O=S(=O)(c1ccc(NC(=S)NN=Cc2c3ccccc3cc3ccccc23)cc1)N1CCOCC1	0.5	x	x	7	23	x	11

Molecules shown so far that contain a CF3 group (4):
SMILES	Sa RN4220 lethal	BJeLR viability	Bead autofluor	Mtb hypoxia inh	Mtb hypoxia inh growth	PrP UTR inh	ugtP null kill
N#Cc1ccc(Cl)cc1NC(=O)CSc1nc2nc(-c3cccs3)cc(C(F)(F)F)c2c(=O)[nH]1	12	18	x	-7	3	x	4
Cc1cc(C(F)(F)F)c(C#N)c(N2CCOCC2)n1	2.5	0	2418	x	x	-8	5
O=C(CN1CCN(c2cccc(C(F)(F)F)c2)CC1)N(C1CCCC1)C1CCS(=O)(=O)C1 (stereo unspecified)	-1.1	x	5949	-2	8	-7	1
O=c1[nH]n2c(=O)c3c([nH]c2c1N=Nc1cccc(C(F)(F)F)c1)CCCC3	3.8	4	x	6	-1	-23	-20
